High-throughput results (PubChem)
LANA-nucl inh – LANA-nucleosome interaction inhibition; AID 720717; z-score (no concentration beside the values); FITC-LANA1-23 / chicken nucleosome fluorescence polarization; active compounds read low; 51,000 compounds, 0.3% hits;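 active means both repeat wells score below -2 in polarization z-score versus plate sample wells, excluding overly bright wells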;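 further: 100 nL library stock added to about 30 µL; numbers are from one replicate; some results filed as inactive read as strong as hits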
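Assay system: purified chicken nucleosomes with FITC-labelled LANA N-terminal peptide (1-23) / Probe or stimulus: 50 nM FITC-LANA1-23 probe / Compound dosing: pin-transferred compound, 100 nL / Times: compound with peptide–nucleosome mix 10–45 min at room temperature / Technique: fluorescence polarization, 480 nm excitation, 535 nm parallel and perpendicular emission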
BasE inh – BasE siderophore biosynthesis inhibition. purified BasE, fluorescence polarization binding displacement. inhibition, % (no concentration beside the values). 84,000 compounds, 0.1% hits. AID 485350;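 active means both replicates above 25% with normal brightness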;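 further: 0% = negative plate control signal and 100% = positive plate control signal; stock transfer was 100 nL into about 30 µL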
* marks the source's active call; other numbers are inactive results; x = not tested or not shown. A portion of the library, so the mix of outcomes need not match the whole.

The opening two compounds (preview)
SMILES | LANA-nucl inh | BasE inh
COC(=O)c1cc2c(ccn2C)n1CC(=O)N(C1CCCCC1)C1CCCCC1 | 0.75 | 2.5
CC(C)C(=O)Nc1ccc(-c2csc(N)n2)cc1 | x | -2.0

The list itself, repeating the preview:
SMILES | LANA-nucl inh | BasE inh
COC(=O)c1cc2c(ccn2C)n1CC(=O)N(C1CCCCC1)C1CCCCC1 | 0.75 | 2.5
CC(C)C(=O)Nc1ccc(-c2csc(N)n2)cc1 | x | -2.0
CCOC(=O)c1nn(-c2ccc(OC)cc2)c(C(=O)OCC)c1NC(=O)C1CCCCC1 | x | 2.1
O=C(NCCCN1CCN(c2ccc(F)cc2)CC1)c1ccc2nc3ccccc3c(=O)n2c1 | -0.38 | 0.6
CCCCOc1ccc(CSC(=N)N)cc1 | -1.1 | -3.9
O=C1c2ccccc2C(=O)N1CN(CN1C(=O)c2ccccc2C1=O)C1CC1 | -0.39 | 1.3
CCN(CC)S(=O)(=O)c1ccc2oc(C(=O)NCCN3CCOCC3)c(C)c2c1 | 0.23 | 2.0
CCCCOc1ccc(C(=O)Nc2cc(C)ccn2)cc1 | 0.17 | -0.8
COc1cccc(/C=N/c2nc3ccccc3n2C)c1O | -0.28 | -0.3
CN(C(=O)CCc1nc(CN2CCN(S(=O)(=O)c3cccs3)CC2)no1)C1CCCCC1 | x | 0.0
Cc1ccc(C)c(N2N=C(C(=O)OCN3C(=O)c4ccccc4C3=O)CCC2=O)c1 | x | 2.6
COC(=O)c1cc(S(=O)(=O)N(C)C2CCCCC2)oc1C | x | 2.1
O=C(CN1C(=O)CCCc2ccccc21)N1CCCCC1 | -0.92 | -0.3
Nc1cnn(C2CCCCC2)c(=O)c1Cl | 0.16 | 1.4
NS(=O)(=O)c1ccc2nc(NC(=O)c3ccc(Br)s3)sc2c1 | 0.069 | 0.9
O=C(O)C1CC=CCC1C(=O)NCCc1ccccc1 (configuration not stated) | 0.17 | 4.2
NNC(=O)C(Oc1ccccc1)Oc1ccccc1 | -0.43 | -0.7
O=C(NCCCN1CCCCCC1)C1C2C=CC3(CN(Cc4cccs4)C(=O)C13)O2 (configuration not stated) | 0.53 | -1.4
CCOC(=O)N1CCN(CC2CCCCC2)CC1 | 0.41 | -2.5
FC(F)(F)c1ccc(NC(=S)NC2CC2)cc1 | x | -0.3
O=S(=O)(c1ccc(=S)[nH]c1)N1CCCCCC1 | x | 0.0
Cc1cccc(C)c1N1C(=O)CSCC1=O | -0.78 | 1.9
CN1C(=O)SC(Nc2ccccc2)C1=O (configuration not stated) | 0.16 | 3.5
COc1cccc2c(C)cc(N3CCCCC3)nc12 | -0.82 | -0.5
c1cncc(CNc2ccc(-c3nc4ncccc4o3)cc2)c1 | -1.4 | 1.1

Ordered by molar mass (ascending): part of the list above
SMILES | LANA-nucl inh | BasE inh
Cc1cccc(C)c1N1C(=O)CSCC1=O | -0.78 | 1.9
CC(C)C(=O)Nc1ccc(-c2csc(N)n2)cc1 | x | -2.0
O=C1c2ccccc2C(=O)N1CN(CN1C(=O)c2ccccc2C1=O)C1CC1 | -0.39 | 1.3
CCN(CC)S(=O)(=O)c1ccc2oc(C(=O)NCCN3CCOCC3)c(C)c2c1 | 0.23 | 2.0

(listing goes on)
SMILES | LANA-nucl inh | BasE inh
CCn1c(SCc2c(C)noc2C)nc2cc(S(=O)(=O)N3CCOCC3)ccc21 | x | 2.2
CN1CCN(NC(NC(=O)c2cccnc2)(C(F)(F)F)C(F)(F)F)CC1 | -0.65 | 3.2
CC(=O)c1sc2ccccc2c1O | x | 2.1
CCCN1C(=O)/C(=C/c2cc(C)n(-c3ccc(Cl)cc3)c2C)NC1=S | x | 0.8
O=C(Nc1cccc(C(=O)NCCN2CCCC2)c1)C1=CSCCO1 | -1.1 | -2.1
Cc1ccc(S(=O)(=O)N(CC(=O)N2CCC(C)CC2)C(=O)N2CCN(C)CC2)cc1 | -1.1 | 0.2
CC(C)(C)NS(=O)(=O)c1ccc2oc3ccc(S(=O)(=O)NC(C)(C)C)cc3c2c1 | -0.47 | 0.9
Cc1cc(NS(=O)(=O)c2ccc(N3C(=O)c4ccccc4C3=O)cc2)no1 | -0.3 | 2.4
CCC(=O)N(c1nnc(SCCN2C(=O)c3ccccc3S2(=O)=O)s1)C1CC1 | x | -0.1
Cc1noc(C)c1Cn1nc(C(=O)O)c2ccccc2c1=O | x | -0.8
C/C(Cn1cc[n+](C)c1)=N/O | 0.44 | -1.2
S=C(c1ccncc1)N1CCOCC1 | -0.84 | -1.6
O=C(CN1C(=O)COc2ccccc21)N(Cc1nc2ccccc2c(=O)[nH]1)CC1CCCO1 (configuration not stated) | x | 16
Cc1ccc(C2=NNC(C(O)C(O)C(O)C(O)CO)S2)cc1 (configuration not stated) | -0.95 | 1.0
CCC(=O)N/C(N)=N\c1nc(C)c2ccccc2n1 | x | -1.5
Cc1oc(NC(=O)C(F)(F)F)c(C#N)c1C | -0.84 | 2.5
N#C/C(C(=O)N1CCCCC1)=C(/S)Nc1ccccc1 | -1.2 | 2.5
CS(=O)(=O)c1ccc(-c2cccc(NC(=O)Cc3cccs3)c2)nn1 | 2.3 | -2.9
NCc1n[nH]c(=S)n1CCc1ccccc1 | 0.11 | 0.2
COC(=O)CSc1nc2ccc(C)cc2[nH]1 | x | -0.1
COc1ccccc1N1CCN(CCC(=O)O)CC1 | -0.91 | -0.5
CC1(C)CC(=O)C2=C(C1)NC(=O)C21C(C#N)=C(N)Oc2ccccc21 (configuration not stated) | -1.4 | -0.8
Cc1ccc(/C=C/C(=O)NCC2CCN(C(=O)/C=C/c3ccc(C)o3)CC2)o1 | 0.73 | 4.3
Cc1nc2cc(CC(=O)O)ccc2o1 | 0.32 | x
Cc1cc(=O)oc2cc(OCC(O)Cn3cnc4ccccc43)ccc12 (configuration not stated) | 0.23 | -0.4

Individual results from above.
For LANA-nucl inh, `N#C/C(C(=O)N1CCCCC1)=C(/S)Nc1ccccc1` is entered as -1.2
For BasE inh, `CCC(=O)N/C(N)=N\c1nc(C)c2ccccc2n1` is entered as -1.5

Next part.
SMILES | LANA-nucl inh | BasE inh
COc1ccc(Cl)cc1N(C(C)C(=O)O)S(C)(=O)=O (configuration not stated) | 0.38 | 0.6
NC(=O)C1=C(N)SC2C(=O)N(c3ccc4ccccc4c3)C(=O)C2C1c1ccccc1O (configuration not stated) | x | -1.5
COc1ccc(OC)c(NC(=O)CS)c1 | 0.26 | 1.0
N#C/C(=C\c1ccco1)C(N)=S | x | -1.8
Fc1ccccc1-c1csc(-n2nccc2C(F)(F)F)n1 | x | 1.5
CCOc1ccc2c(O)c(C3=Nc4ccccc4C3=O)sc2c1 | 2 | -4.1
COc1ccc(CC(=O)NCc2ccccc2)cc1 | -0.48 | 0.9
COc1cc(/C=N/OCC(=O)NCC2CCCO2)ccc1OC(F)F (configuration not stated) | x | 1.6
COC(=O)Nc1cn(Cc2ccccn2)c(=O)c2ccccc12 | -1 | x
CSc1cccc(NC(=O)N2CCN3CCCCC3C2)c1 (configuration not stated) | x | 0.4
COc1ccc(CN2C(=O)N(Cc3cc(=O)n4ccccc4n3)c3ccccc3S2(=O)=O)cc1 | -0.1 | 0.7
O=C(O)C1C2C=CC(O2)C1C(=O)NCCCn1ccnc1 (configuration not stated) | -0.58 | 1.8
Nc1nc(SCCO)[nH]c(=O)c1NC(=O)c1ccccc1F | 0.61 | 0.0
O=C(NCC1COc2ccccc2O1)Nc1csc2ccccc12 (configuration not stated) | x | 0.3
COc1cc2c(cc1OC)C(=O)CC(C)(C)O2 | x | -3.9
C=CCn1c(COc2ccc(CC)cc2)nnc1SCn1nnc2ccccc2c1=O | x | -1.6
O=C1CCCc2cc(S(=O)(=O)N3CCCc4ccccc43)ccc2N1 | x | -1.2
O=C(O)c1[nH]n(-c2ccccc2)c(=O)c1/C=C1\C=Nc2ccccc21 | x | -0.3
Cn1c2ccccc2c2cc(C#N)c3nc(=O)c4ccccc4n3c21 | x | 15
O=C(Cc1nc(-c2cnccn2)no1)N/N=C/c1ccccc1 | 2.2 | -1.0
Cc1ccc2c(CC(=O)OCc3ncc(-c4ccccc4)o3)coc2c1 | x | 0.9
CN(C)Cc1ccc(C#N)cc1 | x | 2.0
Cc1ccc(C)c(NC(=O)c2ccccc2NC(=O)C2CCCO2)c1 (configuration not stated) | -0.76 | 3.2
O=C(NCSCc1cccc(C(F)(F)F)c1)Nc1ccc(F)c(Cl)c1 | x | 2.1
CN(C)c1cccc(C(=O)OCC(=O)C(C)(C)C)c1 | x | 3.0
The list goes on.
SMILES | LANA-nucl inh | BasE inh
Cn1ncc(I)c1C(=O)N1CCc2ccccc2C1 | 0.16 | -1.2
CN1CCC(N(C)C(=O)c2ccc(NS(=O)(=O)c3cccs3)cc2)CC1 | x | -1.8
COC(=O)c1scc(C)c1NN1C(=O)C=C(C)C1=O | x | 2.5
O=c1[nH]c2ccccc2c(=O)n1NC(=S)NC1CC2CCC1C2 (configuration not stated) | x | 0.9
CN(Cc1ccccc1)Cc1c[nH]c2ccccc12 | 0.72 | -1.1
CC1=CC(C)(C)N(CN2C(=O)c3ccccc3C2=O)c2cc(C)ccc21 | 0.19 | 3.3
CC(O)CNc1ncnc2sccc12 (configuration not stated) | x | 1.2
CC1CCCC(C)N1/N=C/c1ccccc1F (configuration not stated) | x | 11
COc1ccc(S(=O)(=O)N(C)c2ccc(C(N)=O)cc2)cc1OC | 0.36 | 3.0
CCSC1=N/C(=C/c2ccsc2)C(=O)N1c1ccccc1 | 1.8 | -2.5
O/N=C/c1cn(CC(O)COc2ccc(Cl)cc2)c2ccccc12 (configuration not stated) | 0.14 | -1.0
CC1(C2CC2)NC(=O)NC1=O (configuration not stated) | x | -2.2
O=C(O)CC1(CC(=O)Nc2nccs2)CCCC1 | x | -0.7
COc1ccccc1/C=C1\C(=O)NC(=O)N(C2CCCC2)C1=O | -1.7 | 1.1
O=C(Nc1csc2ccccc12)N1CCN(C(c2ccccc2)c2ccccc2)CC1 | x | -0.7
CN(C)c1nccc(N(Cc2ccccc2)Cc2ccccc2)c1C#N | 1.2 | -0.9
CCC(C)NC(=O)C1CCN(S(=O)(=O)c2ccc(-n3cnnn3)cc2)CC1 (configuration not stated) | -0.32 | -1.6
O=C1c2ccccc2C(=O)N1CC(=O)n1nc(-c2cccnc2)nc1NCc1cccs1 | -0.39 | -0.2
O=C(C1CCCN(S(=O)(=O)c2ccc(Cl)cc2)C1)N1CCCC1 (configuration not stated) | -0.42 | 0.6
Cc1[nH]c2ccccc2c1/C=N/NC(=O)Cc1nc2sc(C)c(C)c2c(=O)[nH]1 | x | -1.9
Oc1ccc(C=NCC2COc3ccccc3O2)cc1 (configuration not stated) | -0.94 | -0.1
Cn1c(=O)c2cn(C(C)(C)C)cc2n(C)c1=O | -0.72 | -0.2
COc1ccc2nc(C)cc(NCCN3CCOCC3)c2c1 | x | -0.3
O=C1NC2CCCCC2NC1CC(=O)N1CCN(Cc2ccccc2)CC1 (configuration not stated) | 0.13 | 0.4
Cc1ccc(C(=O)NCc2ccco2)o1 | x | 1.5
Going on with the list.
SMILES | LANA-nucl inh | BasE inh
Cc1[nH]c(=S)n(C2CCCCC2)c1C | x | 1.9
OC1CCN(C(=S)NC2CCCC2)CC1 | -0.98 | -0.6
CC(=O)O[C@H]1C(=O)[C@@]2(C)[C@H](O)C[C@@H]3OC[C@]3(OC(C)=O)[C@@H]2[C@@H](OC(=O)c2ccccc2)[C@@]2(O)C[C@@H](OC(=O)[C@@H](O)[C@H](NC(=O)c3ccccc3)c3ccccc3)C(C)=C1C2(C)C | -0.44 | -1.1
CC(O)CCc1nc2ccc(C(=O)O)cc2[nH]1 (configuration not stated) | 0.25 | 2.9
Cc1noc2ncn(CC(=O)NCCc3ccccc3)c(=O)c12 | x | 2.6
CC(=O)Nc1ccc(NC(=O)CNC2CCC(C)CC2)cc1 (configuration not stated) | x | 2.4
C1=C(c2ccccc2)Nc2ncnn2C1c1ccco1 (configuration not stated) | x | -1.6
COC(=O)c1c(C)oc(C)c1S(=O)(=O)N1CCCCC1 | 0.065 | -1.1
Cn1c(=O)c(=O)n(C)c2cc(S(=O)(=O)CCC(=O)N3CCCCC3)ccc21 | -0.24 | 1.9
COc1cccc(-c2noc(-c3ccccc3C)n2)c1 | -0.21 | -0.2
CN1CC(c2ccccc2)OC1=O (configuration not stated) | -1 | 1.9
O=C1CC(c2ccccc2)CC(O)=C1C=NCCN1CCN(C2OC(=O)c3ccccc32)CC1 (configuration not stated) | x | -2.3
CN1CCN(c2nc(-c3ccc[nH]3)cs2)CC1 | x | 0.6
CCN(CC)C(=O)c1sc(NC(=S)N(C)Cc2cn(CC)nc2C)c(C(=O)OC)c1C | -0.84 | 4.8
Cc1ccc(C)c(-c2nnc(NC(=O)/C=C/c3cccs3)o2)c1 | -0.7 | 0.8
CN(C)c1ccc(C(=O)c2ccccc2)cc1 | -0.008 | -1.7
CCOC(=O)C(Cc1ccc(O)cc1)NC(C)=O (configuration not stated) | -0.91 | 1.6
C/C(CCc1ccc2c(c1)OCO2)=N\NC=O | x | 2.0

Whole records from above. Values in the order: LANA-nucl inh, BasE inh
`OC1CCN(C(=S)NC2CCCC2)CC1` is entered as -0.98, -0.6
`Cn1c(=O)c(=O)n(C)c2cc(S(=O)(=O)CCC(=O)N3CCCCC3)ccc21` is entered as -0.24, 1.9
`CC(=O)O[C@H]1C(=O)[C@@]2(C)[C@H](O)C[C@@H]3OC[C@]3(OC(C)=O)[C@@H]2[C@@H](OC(=O)c2ccccc2)[C@@]2(O)C[C@@H](OC(=O)[C@@H](O)[C@H](NC(=O)c3ccccc3)c3ccccc3)C(C)=C1C2(C)C` is entered as -0.44, -1.1
`Cc1noc2ncn(CC(=O)NCCc3ccccc3)c(=O)c12` is entered as x, 2.6
`O=C1CC(c2ccccc2)CC(O)=C1C=NCCN1CCN(C2OC(=O)c3ccccc32)CC1` (configuration not stated) is entered as x, -2.3
